Mtb bLac sens: beta-lactam sensitization of Mtb H37Rv; M. tuberculosis H37Rv growth with meropenem, percent inhibition; hits of this screen are not shown here; inhibition, % at 25 µM; 330,000 compounds, 0.27% hits;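 active = about 74% or more and at least 40 points above the plate without the antibiotic, then above 30% in a dose series; inconclusive = first-round hits that could not be retested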;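 note: growth measured after seven days incubation then overnight dye step; 0% = bacteria only wells and 100% = bacteria with antibiotic; twin plates without the antibiotic show which effects depend on it; some results filed as inactive read as strong as hits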
YopH inh: inhibitors of Yersinia enterocolitica YopH tyrosine phosphatase; inhibition, %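 (about 10 µM by stock and volumes)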; fluorescence Ex485/Em525; 140,000 compounds, 0.16% hits;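 active = inhibition of 50% or more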;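 note: controls were vehicle for no effect and minimum signal wells for full effect; inactives centre near -20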
Mtb H37Rv: M. tuberculosis H37Rv growth inhibitors, H37Rv strain (AID 1626); M. tuberculosis H37Rv growth inhibition; higher % means a stronger effect; inhibition, % at 10 µM, or IC50 in µM where a hit was titrated; 220,000 compounds, 0.95% hits;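 active = confirmed in a dose series; inconclusive = inhibition above 80% but not taken into the dose series; inactive = below 80% or under 30% at every dose of the series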;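 note: bacteria incubated seven days before Alamar blue readout; 0% = bacteria only wells and 100% = bacteria with antibiotic wells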
RecA splice inh: inhibitors of M. tuberculosis RecA intein splicing. P9WHJ3. cell-free RecA intein splicing, fluorescence. inhibition, %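 (about 9 µM by stock and volumes)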. 290,000 compounds, 0.75% hits. AID 2221; in the data active = inhibition above about 30%; inconclusive = no clear call, values can overlap the other calls;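 note: 0% = vehicle wells and 100% = reference inhibitor control wells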
Target sequence (P9WHJ3 whole entry, looked up, canonical isoform): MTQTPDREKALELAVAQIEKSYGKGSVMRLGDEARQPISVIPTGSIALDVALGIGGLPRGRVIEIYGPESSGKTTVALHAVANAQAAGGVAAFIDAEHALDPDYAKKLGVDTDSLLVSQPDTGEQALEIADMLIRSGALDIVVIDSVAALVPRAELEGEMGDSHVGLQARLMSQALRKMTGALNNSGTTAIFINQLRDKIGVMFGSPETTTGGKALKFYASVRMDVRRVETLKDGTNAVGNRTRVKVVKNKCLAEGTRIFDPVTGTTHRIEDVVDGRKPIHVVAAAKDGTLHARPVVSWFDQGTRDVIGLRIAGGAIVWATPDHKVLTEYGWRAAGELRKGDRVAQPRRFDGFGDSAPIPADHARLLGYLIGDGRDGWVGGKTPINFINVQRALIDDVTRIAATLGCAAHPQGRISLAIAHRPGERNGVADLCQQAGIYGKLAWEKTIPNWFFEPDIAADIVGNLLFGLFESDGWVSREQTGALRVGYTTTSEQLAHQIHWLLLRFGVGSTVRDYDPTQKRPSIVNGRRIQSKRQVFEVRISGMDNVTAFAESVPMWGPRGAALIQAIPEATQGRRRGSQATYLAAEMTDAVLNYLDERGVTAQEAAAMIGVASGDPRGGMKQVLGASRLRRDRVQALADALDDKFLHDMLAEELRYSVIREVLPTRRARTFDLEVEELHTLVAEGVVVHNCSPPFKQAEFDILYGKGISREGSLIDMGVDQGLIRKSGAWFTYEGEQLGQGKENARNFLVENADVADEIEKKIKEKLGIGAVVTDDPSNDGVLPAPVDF
Arbovirus anti: arbovirus infection inhibition; arbovirus infection cell-based antiviral screen; 200,000 compounds, 0.37% hits; inhibition, % at 10 µM;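 active = inhibition from about 30%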;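 note: bluetongue infection of BSR cells; cell survival read as ATP light after 72 h; 0% = infected wells without compound and 100% = uninfected wells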
Arbovirus anti repeat: recorded beside Arbovirus anti, whose call it bears; inhibition, %; measured here: 10K subset replicate screen; many hits read low in the repeat;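 first of two repeat runs on a subset; 0% = infected and 100% = uninfected wells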
* marks the source's active call; other numbers are inactive results; u = inconclusive; x = not tested or not shown. The list is partial; rates above refer to the full screens.

SMILES	Mtb bLac sens	YopH inh	Mtb H37Rv	RecA splice inh	Arbovirus anti	others
C/C(=N\Nc1nc(C(=O)O)cs1)c1ccccc1	-1.5	x	5.2%	x	7.2
COc1ccc(N2CCN(c3nc(-c4cccs4)nc4ccccc34)CC2)cc1	92.3	x	>100µM*	8.3	3.1
O=C(COc1ccc(Cl)cc1)Nc1cccc(-c2ccc3nncn3n2)c1	-2.4	x	4.0%	-1.4	-1.3
CC(=O)Cc1nsc(NC(=O)c2ccc(-c3ccc(F)cc3)o2)n1	4.8	x	3.2%	0.4	5.0
CCOC(=O)Cc1nnc(NC(=O)C23CC4CC(CC(C4)C2)C3)s1	15.1	x	13.1%	x	x
CCOC(=O)c1c(C)[nH]c(C(=O)CC(=O)OC)c1C	5.5	x	1.5%	-0.7	5.8
COc1ccc(N(C(=O)c2ccco2)S(=O)(=O)c2ccccc2)cc1	-4.5	13.7	6.9%	x	-7.1
Cn1c(N2CCN(C(c3ccccc3)c3ccccc3)CC2)nc2ccccc21	45.2	x	x	23.5	x
CC(=O)CC1=NC(C)(C)Cc2ccccc21	4.0	x	-5.1%	1.0	7.2
CCCCNC(=O)O[C@@H]1C[C@H]2CCCC(=O)N3CC[C@@H](C1)[C@@H]23	-4.6	x	x	-5.6	x
Cn1c(=O)n(C)c2cc(NS(=O)(=O)c3ccccc3[N+](=O)[O-])ccc21	-14.0	x	x	2.1	x
O=C1CC(c2ccccc2)c2cccc(F)c21 (centres undefined)	1.3	x	x	-1.1	x
O=C(O)c1cccnc1SC1CC(=O)N(Cc2ccccc2)C1=O (centres undefined)	0.6	23.6	-2.6%	-1.2	1.6
COc1ccc(-c2nc(CS(=O)(=O)CC(=O)NCCCc3ccccc3)c(C)o2)cc1	2.6	x	x	-1.3	x
COc1ccc(CNC(=O)c2cc(C)nc3ccccc23)cc1OC	1.1	x	-2.2%	0.4	-5.8
OCCC1CN(Cc2cccn2-c2nccs2)CCN1CCc1ccccc1 (centres undefined)	-10.9	x	-2.3%	0.3	-3.0
Cc1cccc(-c2nnc(SCC(=O)Nc3nc4c(s3)CCCC4)n2C)c1	-1.9	-14.7	-6.5%	0.4	-3.4
N/C(=N\OC(=O)c1cccs1)C1(c2ccc(Cl)cc2Cl)CC1	-11.3	x	15.0%	x	x
Oc1c(Br)cc(Br)cc1CNc1ccccn1	-7.2	x	x	2.4	x
Cc1ccc(C(=O)CSc2nnc(-c3ccccc3N)n2C)cc1	3.1	-43.4	8.6%	1.0	0.7
COc1ccc(/C=N/N=C2\CC3CCC2(C)C3(C)C)cc1O (centres undefined)	-6.2	-3.4	-0.6%	x	12.5
COC(=O)C1=C(C)N(c2ccc(OC)cc2)C(C)=C(C(=O)OC)C1c1ccccc1	5.4	x	1.8%	0.2	x
CC(=O)N(Cc1c(C#N)c2ccccc2n1C)c1ccccc1	-17.4	2.1	-11.1%	-2.7	-1.8
CCSC1=N/C(=C\c2cccnc2)C(=O)N1c1ccccc1	5.7	-26.9	-1.3%	0.4	-7.2
CC1=CC(C)(C)N(C(=O)CSc2ncn[nH]2)c2ccccc21	60.9	-8.6	0.1%	4.9	18.3

A draw from above in order of molar mass, descending.
SMILES	Mtb bLac sens	YopH inh	Mtb H37Rv	RecA splice inh	Arbovirus anti	others
O=C(COc1ccc(Cl)cc1)Nc1cccc(-c2ccc3nncn3n2)c1	-2.4	x	4.0%	-1.4	-1.3
CCSC1=N/C(=C\c2cccnc2)C(=O)N1c1ccccc1	5.7	-26.9	-1.3%	0.4	-7.2
CCCCNC(=O)O[C@@H]1C[C@H]2CCCC(=O)N3CC[C@@H](C1)[C@@H]23	-4.6	x	x	-5.6	x

Back to the main list; the 7 compounds before the break are reprinted first.
SMILES	Mtb bLac sens	YopH inh	Mtb H37Rv	RecA splice inh	Arbovirus anti	others
Oc1c(Br)cc(Br)cc1CNc1ccccn1	-7.2	x	x	2.4	x
Cc1ccc(C(=O)CSc2nnc(-c3ccccc3N)n2C)cc1	3.1	-43.4	8.6%	1.0	0.7
COc1ccc(/C=N/N=C2\CC3CCC2(C)C3(C)C)cc1O (centres undefined)	-6.2	-3.4	-0.6%	x	12.5
COC(=O)C1=C(C)N(c2ccc(OC)cc2)C(C)=C(C(=O)OC)C1c1ccccc1	5.4	x	1.8%	0.2	x
CC(=O)N(Cc1c(C#N)c2ccccc2n1C)c1ccccc1	-17.4	2.1	-11.1%	-2.7	-1.8
CCSC1=N/C(=C\c2cccnc2)C(=O)N1c1ccccc1	5.7	-26.9	-1.3%	0.4	-7.2
CC1=CC(C)(C)N(C(=O)CSc2ncn[nH]2)c2ccccc21	60.9	-8.6	0.1%	4.9	18.3
CC1(c2ccc(C#N)cc2)NC(=O)N(CC(=O)Nc2cc(S(=O)(=O)N3CCOCC3)ccc2Cl)C1=O (centres undefined)	-6.8	x	-0.6%	1.1	1.2
COc1cnn(-c2cc(Oc3ccc(C)cc3)ncn2)c(=O)c1Cl	-6.5	-7.0	2.3%	-1.9	1.6
CN(Cc1ccc(F)cc1)C(=O)c1cc(COc2ccc(F)cc2F)on1	2.0	x	11.0%	5.2	-13.0
O=C(CN(C(=O)CCC(=O)Nc1nccs1)c1cccc(F)c1)NCc1ccc2c(c1)OCO2	-9.1	x	x	-1.7	x
O=C(CSc1nccc(=O)[nH]1)NC1CCCc2ccccc21 (centres undefined)	-4.2	x	-16.6%	1.4	x
COC(=O)[C@@H](NC(=O)c1ccccc1)[C@@H](C)O	2.4	x	x	1.2	x
COCCCN=C1NN=C(c2cc(C)n(Cc3ccco3)c2C)CS1	97.2	-30.7	-3.3%	3.1	-6.0
Cc1ccc(NC(=O)NNS(=O)(=O)c2ccc(Br)cc2)cc1	0.6	4.6	4.3%	-2.0	-1.2
CCSC1=NCCN1C(=O)c1ccc(S(=O)(=O)N(C)C)cc1	-1.6	x	1.7%	-0.1	-0.9
CC(=O)c1ccc(NC(=O)CN2CCN(c3ccccc3)CC2)cc1	-12.3	x	x	-0.1	x
COc1ccccc1NC(=O)c1ccc(-c2ccccc2[N+](=O)[O-])o1	71.6	x	2.7%	4.0	-9.1
C=CCOc1ccc(C2C(C#N)=C(N)N(N(C)C)C3=C2C(=O)CCC3)cc1 (centres undefined)	2.6	x	x	-1.8	x
CC(c1ccccc1)N1CC(C(=O)N2CCN(c3ccccc3)CC2)CC1=O (centres undefined)	9.4	-50.6	3.5%	1.2	0.9	Arbovirus anti repeat=-0.7
COc1cc(NC(=O)c2nccn2C)cc(C(=O)Nc2cccc(C(F)(F)F)c2)c1	8.4	x	-16.3%	0.6	x
Cc1ccc(NS(=O)(=O)c2c(C)[nH]c(C)c2C(=O)N2CCCC2)cc1Cl	-11.7	x	x	-1.7	x
CCCOC(=O)c1cc(=O)[nH]c2ccccc12	1.6	-9.3	-2.2%	2.8	-5.6
COC1=C(N)C(=O)c2nc(-c3nc(C(=O)O)c(C)c(-c4ccc(OC)c(OC)c4O)c3N)ccc2C1=O	80.1	101.4*	u	x	-43.2
Cc1ccc2c(c1)N(CC(=O)NCCCN1CCCCC1)C(=O)CO2	-1.2	x	x	-1.2	x
Cc1ccc(OCC(=O)Nc2ccc(S(=O)(=O)N(C)C3CCN(C)CC3)cc2)c(C)c1	-17.5	x	x	-0.6	x
Cc1ccn(C(=O)c2cc3c(C)nn(-c4ccccc4)c3s2)n1	-2.8	14.8	10.1%	2.1	9.6
O=C(N/N=C/C=C\c1ccccc1[N+](=O)[O-])c1cccs1	27.0	-10.7	-4.0%	-1.7	-5.5
O=[N+]([O-])c1cc(Cl)cc(C2=NCCN2)c1	6.4	5.7	-2.5%	-1.1	-10.6
Cc1ccc(NC(=S)N2CCN(S(=O)(=O)c3ccc(C)cc3)CC2)cc1	-1.8	x	x	-0.9	x
Cc1ccc2cc(/C=N/NC(=O)CN3CCOCC3)c(Cl)nc2c1	-1.9	-25.2	-1.2%	0.6	-4.3
COc1ccc(CNC(=O)CN(C(=O)c2snc(C(N)=O)c2N)c2cccc(F)c2)cc1	2.0	x	x	1.4	x

2 compounds drawn at random from the list so far:
SMILES	Mtb bLac sens	YopH inh	Mtb H37Rv	RecA splice inh	Arbovirus anti	others
Cc1ccc(NS(=O)(=O)c2c(C)[nH]c(C)c2C(=O)N2CCCC2)cc1Cl	-11.7	x	x	-1.7	x
Cc1ccn(C(=O)c2cc3c(C)nn(-c4ccccc4)c3s2)n1	-2.8	14.8	10.1%	2.1	9.6

Compounds shown so far with two or more sulfur atoms, in the order listed:
SMILES	Mtb bLac sens	YopH inh	Mtb H37Rv	RecA splice inh	Arbovirus anti	others
Cc1cccc(-c2nnc(SCC(=O)Nc3nc4c(s3)CCCC4)n2C)c1	-1.9	-14.7	-6.5%	0.4	-3.4
CCSC1=NCCN1C(=O)c1ccc(S(=O)(=O)N(C)C)cc1	-1.6	x	1.7%	-0.1	-0.9
Cc1ccc(NC(=S)N2CCN(S(=O)(=O)c3ccc(C)cc3)CC2)cc1	-1.8	x	x	-0.9	x

Going on with the list:
SMILES	Mtb bLac sens	YopH inh	Mtb H37Rv	RecA splice inh	Arbovirus anti	others
COc1cc(C(=O)OCC(=O)Nc2cc(S(=O)(=O)N3CCOCC3)ccc2C)ccc1OCC(C)C	1.6	x	x	-1.7	x
Cc1cc(C(=O)NNC(=O)c2sccc2C)c(C)o1	-3.2	x	x	3.8	x
COc1ccc(CSc2nc(C)[nH]c2[N+](=O)[O-])cc1[N+](=O)[O-]	-0.2	x	-3.3%	-1.0	x
COc1ccccc1C(=O)Nc1nnc(SCC(=O)NCc2ccco2)s1	u	x	x	0.9	x
COC(=O)C1=C(C)N(c2ccccc2)/C(=C/c2cccs2)C1=O	2.7	-27.6	0.8%	-1.3	5.8
CCOC(=O)C(=O)NNc1ccccc1C	58.4	2.3	57.1%	-7.4	-34.0
O=C(NC(=S)Nc1cccc(O)c1)c1cncc(Br)c1	3.2	x	x	3.1	x
O=C(NCC(=O)N1CCN(c2ccccc2O)CC1)c1ccc2ccccc2c1	10.4	x	x	-3.6	x
O=c1[nH]c(C2CCN(S(=O)(=O)c3ccccc3C(F)(F)F)CC2)nc2c1nnn2Cc1ccccc1	81.6	x	x	6.8	x
CC(C)CCN1C(=O)c2ccccc2C1C(=O)NCc1cccnc1 (centres undefined)	-4.9	-41.1	-7.9%	-0.1	6.8
CCC(=O)NC(=S)Nc1ccccc1C(F)(F)F	4.8	-9.2	25.4%	-8.4	x
CC(C)N(C(=O)CN1C(=O)NC(c2ccccc2)(c2ccccc2)C1=O)C(C)C	8.0	x	x	-3.0	x
CCOC(=O)c1c(C)nc(C)c(C(=O)OCC)c1-c1ccc(O)c(OC)c1	1.4	x	24.7%	-4.0	3.6
CC(NC(=O)C1CC1)C(c1cccs1)N1CCOCC1 (centres undefined)	-2.5	x	4.5%	-2.5	x
CCCC1=C([O-])C2N=CC=CC2=[N+](c2ccccn2)C1=O (centres undefined)	-2.0	-26.1	0.2%	-10.8	-4.0
Cc1ccsc1C(=O)OCC(=O)Nc1cccc(S(=O)(=O)N2CCOCC2)c1	-5.3	-28.5	2.3%	-0.1	3.4
CC1CN(S(=O)(=O)c2ccc(C(=O)Nc3nccs3)cc2)CC(C)O1 (centres undefined)	-7.1	x	-10.4%	0.7	x
CCOC(=O)c1ccccc1NC(=S)N1CCC(C)CC1	2.9	1.9	8.0%	-4.8	-0.9
Nc1nnc(-c2cccc(F)c2)s1	-1.9	x	1.0%	-1.7	x
CCn1c(C(=O)N2CCC(C(=O)NCc3cccs3)CC2)cc2sccc21	1.3	-40.5	6.4%	-0.6	4.6

Screens: PubChem, several laboratories
